# Compound activity from PubChem.
# TRPV1 potentiator: HTS Assay for Compounds that Act as Potentiators of the Vanilloid Receptor 1; potentiation, % at 8.33 µM; hit rate 0.02% among 320,000; TRPV1-expressing cells, Fluo-8 calcium influx, capsaicin EC20 potentiation; host cell line not named in the record; control for the full effect not named in the record; active means potentiation above 80%; inconclusive means 30% to 80%; inactive means below 30%; note: 0% is about no effect
# Target sequence (Q8NER1 whole entry, looked up): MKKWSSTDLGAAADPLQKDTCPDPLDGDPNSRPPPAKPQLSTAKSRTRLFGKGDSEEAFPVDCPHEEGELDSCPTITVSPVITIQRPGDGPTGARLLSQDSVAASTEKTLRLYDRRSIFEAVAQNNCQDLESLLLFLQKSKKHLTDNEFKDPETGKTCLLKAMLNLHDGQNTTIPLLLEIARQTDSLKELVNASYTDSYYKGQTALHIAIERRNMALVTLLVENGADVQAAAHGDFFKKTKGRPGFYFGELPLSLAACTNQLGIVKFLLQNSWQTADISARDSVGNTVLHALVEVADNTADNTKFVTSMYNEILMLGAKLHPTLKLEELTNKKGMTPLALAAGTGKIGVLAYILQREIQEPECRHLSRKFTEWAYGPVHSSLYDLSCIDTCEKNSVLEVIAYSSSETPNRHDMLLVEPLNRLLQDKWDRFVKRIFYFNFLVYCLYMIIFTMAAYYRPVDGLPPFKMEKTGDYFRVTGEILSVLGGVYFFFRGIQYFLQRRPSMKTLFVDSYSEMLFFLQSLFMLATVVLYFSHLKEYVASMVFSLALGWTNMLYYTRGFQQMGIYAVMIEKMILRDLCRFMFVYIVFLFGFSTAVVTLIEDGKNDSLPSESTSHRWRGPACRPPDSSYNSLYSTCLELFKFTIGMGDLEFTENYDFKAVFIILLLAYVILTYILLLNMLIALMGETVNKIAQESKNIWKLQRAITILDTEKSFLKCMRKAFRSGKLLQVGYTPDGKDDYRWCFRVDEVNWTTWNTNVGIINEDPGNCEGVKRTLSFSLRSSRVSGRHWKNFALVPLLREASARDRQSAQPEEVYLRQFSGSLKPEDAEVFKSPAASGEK
#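 Fluo-8 calcium influx in TRPV1-expressing cells, kinetic read (ex 480/em 520 nm). Compound added and read 3 min for agonist activity, followed by capsaicin at EC20 final and 2 min further read for enhancement.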
# ClpP mod: qHTS Assay for Activators of ClpP; ATP-dependent Clp protease proteolytic subunit (Bacillus subtilis (strain 168)), P80244; purified B. subtilis ClpP, FRET peptide cleavage, 20 min; Potency, µM (titrated, usually from 57.5 µM), for inactives: at the highest dose activity change, negative = active; hit rate 1.9% among 340,000; active = well fitted falling curve with a large enough effect; inconclusive = small, poorly fitted or top-dose-only effect; inactive = no such curve, though single readings can be large or run the other way; note: potency is the fitted concentration of half-maximal effect; the source files actives as falling curves though it sought activators and does not explain the sign; nearly all actives have a fitted effect of over 65% in size; many hits overshoot -100%
# Target sequence (P80244 whole entry, looked up): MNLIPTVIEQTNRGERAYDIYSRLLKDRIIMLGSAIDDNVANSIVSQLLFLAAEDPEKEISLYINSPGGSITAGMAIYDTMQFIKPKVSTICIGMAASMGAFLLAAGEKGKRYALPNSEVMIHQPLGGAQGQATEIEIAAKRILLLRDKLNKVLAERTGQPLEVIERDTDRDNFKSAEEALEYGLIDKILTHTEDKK
#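 Purified B. subtilis ClpP, 10 microg/mL final in Tris/HCl pH8 with KCl, BSA, glycerol and Tween-20, cleaved an Abz/nitrotyrosine-quenched decapeptide. Fluorescence (ex 320, em 430) was read at 0 and 20 min at room temperature. Delta was normalized to 5.8 microM ADEP and DMSO/no-enzyme controls.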
# Sfp PPTase inh: qHTS Assay for Inhibitors of Bacillus subtilis Sfp phosphopantetheinyl transferase (PPTase); 4'-phosphopantetheinyl transferase ffp (Bacillus subtilis), Q9F4F7; Biochemical Sfp PPTase activity, qHTS; Potency, µM, without a hit: max response, negative = inhibition, usual class: inhibitors; hit rate 3.5% among 310,000; active = well fitted inhibition curve with a large enough effect; inconclusive = small, poorly fitted or top-dose-only effect, or another doubt; inactive = no such curve, though single readings can be large or run the other way;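 note: the enzyme is Sfp with the accession as filed and its product quenches rhodamine fluorescence; potency is the fitted concentration of half-maximal effect; 0% = enzyme reaction without inhibitor and -100% = no enzyme wells; top concentration of the series not given in the record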
#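 After 15 min at room temperature with compound, 15 nM Sfp received 5 uM rhodamine-CoA plus 12.5 uM BHQ-2-ybbR (50 mM Hepes pH 7.6, 10 mM MgCl2). Rate came from the fluorescence difference over 30 min, ex 525/em 598 nm.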
# Menin-MLL FL inh: qHTS Assay for Inhibitors Targeting the Menin-MLL Interaction in MLL Related Leukemias: Competition With Fluorescein Labeled MLL-derived Peptide | Fluorescence polarization, fluorescein-MLL peptide displacement from menin | 290,000 tested, under 10 active | FP activity change, % at 61.4 µM; inconclusive = falling polarisation curve, or a change in total fluorescence; inactive = total fluorescence flat and polarisation flat or rising; no compound was filed as active; the % refers to the polarisation; negative = inhibition;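 note: % of control where 0% means no effect; inhibitors lower the polarisation; unlabelled MLL peptide was the positive control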
# TRPML1 blocker: qHTS for Inhibitors of the Human Mucolipin Transient Receptor Potential 1 (TRPML1) | Mucolipin-1 (Homo sapiens), Q9GZU1 | TRPML1-inducible cells, Ca2+ dye fluorescence, FDSS; stronger effect = lower value; inhibition of EC80 agonist-evoked calcium signal | activity change, negative = inhibition, % (concentration not given with the values) | hit rate 0.02% among 390,000 | AID 624415, 2012; in the data active means activity change below about -50%; inconclusive means about -30% to -50%; inactive means above about -30%;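 note: stimulus is agonist 54-4 at its EC80 concentration; % is set by controls: 0 for no effect and ±100 for the full control effect; compound concentration not given in the record; the text of the record puts the active cut at -80%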
#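 Tet-induced TRPML1-DL cells loaded with Ca8 no-wash calcium dye were read kinetically on FDSS. Compound addition was followed by EC80 agonist 54-4 (4 uM final); inhibition was read over 110 s.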
# gsp antagonist: qHTS for Antagonists of gsp, the Etiologic Mutation Responsible for Fibrous Dysplasia/McCune-Albright Syndrome: qHTS; gsp-mutant cells, cAMP HTRF, 30 min; control for the full effect not named in the record; Potency, µM (top dose mostly 76.9 µM), for the others: at the top dose activity change, negative = inhibition, actives largely listed as inhibitors; hit rate 0.4% among 340,000; AID 624288, 2012; active = falling curve of any shape with a large fitted effect; inconclusive = falling curve, mostly with a smaller effect; inactive = flat or rising curve; cell line not stated here;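 note: intracellular cAMP measured with PDE inhibitor Ro 20-1724 present during compound exposure; potency is the fitted concentration of half-maximal effect; % is set by controls: 0 for no effect and ±100 for the full control effect; nearly all actives have a fitted effect of over 65% in size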
#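 Cells in G418 medium, seeded 16-24 h, 37C; buffer exchange to DPBS + 1 mM CaCl2, 0.5 mM MgCl2, 0.05% BSA; cpds in DMSO + […] (300 uM stock), 30 min 37C; HTRF cAMP detection.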
# gsp agonist: qHTS for Agonist of gsp, the Etiologic Mutation Responsible for Fibrous Dysplasia/McCune-Albright Syndrome: qHTS | hit rate 0.13% among 340,000 | Potency, µM (highest dose often 76.9 µM), inactives show at the highest dose activation (cAMP increase), hits mostly activators | gsp mutant cells, cAMP HTRF, 30 min; control for the full effect not named in the record; active = well fitted activation curve with a large enough effect; inconclusive = small, poorly fitted or top-dose-only effect, or another doubt; inactive = no such curve, though single readings can be large or run the other way; cell line not stated here;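 note: phosphodiesterase inhibitor Ro 20-1724 added with compounds to block cAMP breakdown; potency is the fitted concentration of half-maximal effect; nearly all actives have a fitted effect of over 60% in size; about a fifth of the inactives were tested at one dose only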
#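 Cells stably selected in G418 were plated at 2000/well, grown 16-24 hr, then given compounds in DMSO with the PDE inhibitor […] (300 uM solution added) for 30 min at 37C; cAMP was read by HTRF.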
# * marks the source's active call; other numbers are inactive results; ? = inconclusive; · = no result given; [ ] = dose if it differs, or a comment.
SMILES,TRPV1 potentiator,ClpP mod,Sfp PPTase inh,Menin-MLL FL inh,TRPML1 blocker,gsp antagonist,gsp agonist
COc1ccc(SN=C2C(C)=CC(=O)C=C2C)cc1,-4,·,-11%,-2.6,49,-9%,-8%
Cc1nc2ccccc2cc1OCc1ccc(F)cc1,-8,-2.4%,-16%,2.2,2,-1%,-19%
N#Cc1ccccc1S(=O)(=O)N1CCN(C(=O)C2CC(=O)N(c3ccc4c(c3)OCCO4)C2)CC1 (stereo not drawn),·,-1.2%,·,·,15,3%,-8%
Cc1c(Cl)cccc1NC(=O)Cn1c(CCC(=O)O)ccc1-c1ccc(Cl)cc1,6,-3.7%,21%,-0.7,6,-9%,-15%[15.4 µM]
Cc1ccc(-c2cc(C)nc3nc(N)nn23)cc1,0,14µM*,12%,4.4,-10,0%,?
COc1ccc(C(=O)Nc2nc3ccc(S(C)(=O)=O)cc3s2)cc1,-8,?,1%,0.9,-4,23%,?
O=C(NCC(c1ccco1)N1CCc2ccccc2C1)C(=O)Nc1cc(F)ccc1F (stereo not drawn),8,-1.2%,·,·,-12,-2%,-60%[inhibitor]
CC1CCN(C2(O)C(=O)Nc3ccc(Cl)cc32)CC1 (stereo not drawn),-1,13µM*,8%,3.3,12,10%,-16%[15.4 µM]
CCOC(=O)c1ccc(N=Cc2c(O)c3ccccc3oc2=O)cc1,17,·,12%,6.3,26,2%,9%
O=C(CN1CCN(C(=O)CCC(=O)N2CCC(c3ccccc3)=N2)CC1)Nc1ccc(F)cc1,2,·,·,·,-22,-1%,-35%[15.4 µM]
Nc1n[nH]c(=S)n1-c1ccc(Cl)cc1,-14,0.6%,16µM*,-12,-1,10%,-17%
CCOC(=O)C1(Cc2ccccc2C)CCCN(C(=O)c2ccc(C(C)=O)s2)C1 (stereo not drawn),·,1.9%,·,·,8,·,-36%[inhibitor]
O=C(c1cccnc1)N(Cc1ccccc1)C(=O)c1cccnc1,·,·,·,·,8,5%,25%
COc1ccc(-n2c(=O)[nH]cc(C(=O)Nc3ccc4c(c3)OCCO4)c2=O)cc1OC,-9,-9.0%,12%,1.3,5,4%,-8%
COc1ccc(C(C(=O)NCC2CCCO2)N(C(=O)CNC(=O)c2cccs2)c2ccc(NC(C)=O)cc2)cc1OC (stereo not drawn),2,·,2%,-9.5,-7,17%,-7%[15.4 µM]
Cc1cc(C)n(-c2ccc(C(=O)Nc3nnc(C4CC4)s3)cc2)n1,5,-14%,2%,-1.6,0,14%,-10%
CCOC(=O)c1cc2c(ccn2C)n1CC(=O)N1CCC(Cc2ccccc2)CC1,-14,-16%,-15%,-0.9,2,-25%,-23%
O=S(=O)(NCc1cccnc1)c1cccs1,10,-1.6%,5%,-2.2,-2,8%,22%
COc1cccc(NC(=O)COc2ccc(C)cc2)c1,-4,-0.3%,9%,-2.5,13,-12%,10%
CCCN(CCC)CCCNS(=O)(=O)c1ccc2c(c1)oc(=O)n2C,-6,5.2%,1%,3.7,-7,-9%,-1%

# Record cards, as listed above:
# Entry for O=C(NCC(c1ccco1)N1CCc2ccccc2C1)C(=O)Nc1cc(F)ccc1F (stereo not drawn) → TRPV1 potentiator = 8; ClpP mod = -1.2%; Sfp PPTase inh = ·; Menin-MLL FL inh = ·; TRPML1 blocker = -12; gsp antagonist = -2%; gsp agonist = -60%[inhibitor]
# Entry for Nc1n[nH]c(=S)n1-c1ccc(Cl)cc1 → TRPV1 potentiator = -14; ClpP mod = 0.6%; Sfp PPTase inh = 16µM*; Menin-MLL FL inh = -12; TRPML1 blocker = -1; gsp antagonist = 10%; gsp agonist = -17%

# Continuation.
SMILES,TRPV1 potentiator,ClpP mod,Sfp PPTase inh,Menin-MLL FL inh,TRPML1 blocker,gsp antagonist,gsp agonist
Cc1ccc2nc(SCC(=O)c3ccc4c(c3)NC(=O)CO4)[nH]c2c1,-4,-17%,-8%,6.1,27,-13%,6%[15.4 µM]
O=C(NCc1ccc(N2CCCC2=O)cc1)NC1CCCCC1,1,0.5%,19%,1.5,0,2%,-48%[inhibitor]
Nc1c(-c2ccccc2)c(CSc2nc3ccccc3[nH]2)nn1-c1cccc(Cl)c1,11,?,-3%,1.4,17,0%,4%
S=C(NCCc1ccccc1)N1CCN(C(c2ccccc2)c2ccccc2)CC1,14,-1.7%,2%,8.8,28,-2%,?
COc1ccc(S(=O)(=O)NNC(=O)Nc2ccc(F)cc2)cc1,·,-3.3%,·,·,-7,0%,?
CCOC(=O)N1CCC(Nc2c(NCCCOC)c(=O)c2=O)CC1,14,0.5%,10%,-0.5,-14,1%,0%
Cc1c(C#N)c(N=CN(C)C)c(C(=O)c2ccccc2)n1-c1ccccc1,8,0.5%,3%,6.5,-9,-9%,?
N#CCC(=O)Nc1ccc(C(=O)OCC(=O)NC(=O)Nc2ccc3c(c2)OCCO3)cc1,·,0.4%,·,·,-18,10%,-19%
Cc1cc(NC(=O)C2CCCCC2C(=O)O)ccc1NC(=O)c1ccccc1 (stereo not drawn),-7,-1.2%,11%,·,4,3%,-3%[15.4 µM]
Cc1cccc(C(=O)Nc2ccc(C(=O)N/N=C/c3cccc(C)n3)cc2)c1,26,·,-4%,-4.1,3,-5%,?
Cc1cccc(NC(=O)CNC(=O)c2cc(S(=O)(=O)N(C)C)ccc2N2CCCC2)c1C,·,-17%,·,·,-3,·,5%
COc1cc(C)ccc1OCCOCCOc1ccc([N+](=O)[O-])cc1,11,-0.4%,-3%,1.3,-4,-8%,-53%[inhibitor]
CCOc1ccc(-c2nnc(-c3cccs3)o2)cc1,-6,1.3%,10%,5.3,17,3%,4%
CCOc1ccc(-c2nc(N)ncc2-c2ccc(Cl)cc2)c(O)c1,-14,-0.8%,-1%,6.0,-8,-15%,2%
Cc1ccc(-c2nnc(SCC(=O)NC3CCS(=O)(=O)C3)nc2-c2ccc(C)cc2)cc1 (stereo not drawn),-9,0.0%,5%,4.1,-2,-27%,-14%[15.4 µM]
CCOC(=O)c1sc(N2C(=O)C(O)=C(C(=O)c3ccco3)C2c2ccc([N+](=O)[O-])cc2)nc1C (stereo not drawn),·,0.6%,·,·,-2,?,12%
O=C(NC(=S)NCC1CCCO1)C(c1ccccc1)c1ccccc1 (stereo not drawn),12,-3.1%,14%,3.8,-3,12%,11%
Cc1ccc(OCC(=O)N2C(C)CCCC2C)c([N+](=O)[O-])n1 (stereo not drawn),·,-2.1%,·,·,-11,3%,-8%[15.4 µM]
O=C(COc1ccc2ccccc2c1)N1CCNCC1,0,-0.9%,7%,·,5,16%,-1%[15.4 µM]
CCCc1cc2c(cc1NC(=O)c1ccc(C)cc1)OCO2,13,0.5%,15%,1.4,-5,13%,-37%[inhibitor]
CCc1ccc(NC(=O)C(=O)NNC(=O)c2ccc(OC)cc2)cc1,17,·,19%,-2.1,10,6%,-2%[15.4 µM]
Cc1nnc(NC(=O)Cn2cnc3c2c(=O)n(C)c(=O)n3C)s1,8,-1.2%,16%,-2.6,1,11%,?
COc1ccc(S(=O)(=O)NCCc2ccccc2)cc1OC,8,-4.2%,18%,1.4,30,3%,-1%[15.4 µM]
CCOC(=O)c1sc(SC)c2c1CCC/C2=N/OC,21,0.9%,6%,2.3,-3,-8%,-1%[15.4 µM]
N#Cc1c(NC(=O)CN2CCN(C(=O)c3ccco3)CC2)sc2c1CCCCC2,15,1.2%,-3%,-0.7,6,5%,-18%
O=C(C1CCCO1)N1CCN(Cc2nc3ccccc3c(=O)[nH]2)CC1 (stereo not drawn),-4,-1.4%,-23%,3.2,7,6%,-3%
COc1ccc(C2=NCCc3cc(OC)c(OC)cc32)cc1OC,5,1.3%,1%,1.9,-3,29%,30%
Cc1oc2cc3oc(=O)c(CCC(=O)N(C)CC(=O)O)c(C)c3cc2c1C,-7,2.6%,5%,6.0,-6,5%,14%[15.4 µM]
COc1ccc(NC(=O)c2ccc(NC(=O)c3ccco3)cc2)c(OC)c1,0,·,19%,-0.9,2,-10%,-3%
CCOC(=O)c1ccc(NC2OC(=O)c3ccccc32)cc1 (stereo not drawn),13,-0.9%,28%,2.1,8,3%,-26%
COc1ccc(CS(=O)(=O)/C(Cl)=C(/Cl)C(=O)Nc2ccc(OC)nc2)cc1,5,5.1%,1%,2.0,-8,-3%[15.4 µM],8%
OCC12COC(c3ccccc3)N1C(c1ccccc1)OC2 (stereo not drawn),-1,-2.3%,9%,1.8,6,8%,-51%[inhibitor]
Cc1ccccc1N(CC(=O)N/N=C/c1ccccc1Cl)C(=O)c1ccccc1,21,-0.2%,7%,4.2,5,-1%,-8%
COc1cccc(C(C(=O)NCc2ccccc2)N(C(=O)c2csnn2)C2CC2)c1 (stereo not drawn),-7,·,11%,1.9,-7,·,25%[15.4 µM]
O=C(Nc1ccc(C(=O)N2CCOCC2)cc1)Nc1ccc(Cl)cc1Cl,-14,0.3%,?,-1.5,-15,-7%,8%

# 4 compounds out of the list, arranged by number of heavy atoms, rising:
SMILES,TRPV1 potentiator,ClpP mod,Sfp PPTase inh,Menin-MLL FL inh,TRPML1 blocker,gsp antagonist,gsp agonist
CCOC(=O)c1sc(SC)c2c1CCC/C2=N/OC,21,0.9%,6%,2.3,-3,-8%,-1%[15.4 µM]
Cc1nnc(NC(=O)Cn2cnc3c2c(=O)n(C)c(=O)n3C)s1,8,-1.2%,16%,-2.6,1,11%,?
COc1ccc(C2=NCCc3cc(OC)c(OC)cc32)cc1OC,5,1.3%,1%,1.9,-3,29%,30%
Cc1ccccc1N(CC(=O)N/N=C/c1ccccc1Cl)C(=O)c1ccccc1,21,-0.2%,7%,4.2,5,-1%,-8%
